# Screening data deposited in PubChem by National Center for Advancing Translational Sciences (NCATS).
# miR-21 reporter – qHTS Assay for Modulators of miRNAs and/orActivators of miR-21; Potency, µM (doses to about 38.3 µM), without a hit: top-dose reporter change, positive = more light; AID 2288, 2010; HeLa miR-21 FLuc reporter, luciferase, 48 h; 340,000 tested, under 10 active; active = well fitted rising curve with a large enough effect; inconclusive = small, poorly fitted or top-dose-only effect; inactive = no such curve, though single readings can be large or run the other way;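 also: % of control where 0% means no effect; miR-21 action dims this reporter so a rising signal means less miR-21 action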
#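 HeLa miR-21-FLuc reporter line, endogenous miR-21; 2000 cells/well in DMEM/10% FBS; compound titration up to ~40uM final, 48 h, 37 degree Celsius; luciferase detection reagent, 15 min lysis, CCD luminescence.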
# * = called active by the depositor; ? = inconclusive.
canonical_smiles,miR-21 reporter
COc1ccc(CCNC(=O)c2c[nH]n3c(=O)c(Cc4ccccc4Cl)c(C)nc23)cc1OC,?
Oc1ccc(Nc2nc3ccccc3n3cnnc23)cc1,-27%
CCC(=O)N1CCc2cc(Br)cc(S(=O)(=O)N3CCC(C(=O)Nc4ccccc4F)CC3)c21,26%
Cc1ccc(CCNC(=O)c2ccc3[nH]c(C)c(C)c3c2)cc1,-12%
CC(C)Oc1ccc(CNC(=O)c2cnc3sc(N4CCCCC4)nn3c2=O)cc1,-3%
COc1ccc(CNC(=O)C(C)N2Cc3ccccc3C2=O)cc1 (stereo not drawn),0%
O=C(COc1ccc(F)cc1)NCc1ccc2c(c1)CCN2C(=O)c1ccc(F)cc1,?
Cc1ccc(S(=O)(=O)Cc2nc(-c3ccc(C(=O)NCCCOC(C)C)cc3)oc2C)cc1,1%
Cc1cccc(Cn2c(CNC(=O)c3ccccc3)nc3ccccc32)c1,-10%
Cc1cccc(C2C=C(c3ccc(F)cc3)Nc3nc4ccccc4n32)c1 (stereo not drawn),-33%
COc1c(Cl)cc(C(=O)Nc2cccc(-c3nc4ccccc4[nH]3)c2)cc1Cl,?
Cc1ccc2oc(=O)c3cnn(CC(=O)N4CCN(c5ccc(F)cc5)CC4)c3c2c1,2%
COCCCN(Cc1ccco1)C(=O)c1cc2c(s1)-c1ccccc1OC2,-9%
Cc1ccc(NC(=O)c2ccc(=O)n(CC(=O)Nc3cccc(C)c3)n2)cc1,-16%
COc1cccc(CNC(=O)CC(c2ccc(C)cc2)N2Cc3ccccc3C2=O)c1 (stereo not drawn),6%
Cc1c(C(=O)NCc2ccccc2Cl)sc2ncnc(N(C)C3CCCCC3)c12,8%
Cc1ccc(C)c(Cn2c(=O)n(CCCC(=O)NCCc3ccc(Cl)cc3)c(=O)c3ccccc32)c1,-2%
COc1cccc(-n2ccnc2SCC(=O)Nc2cccc3ccccc23)c1,0%
CC(C)c1ccc(OCC(=O)N(Cc2cccs2)C2CCS(=O)(=O)C2)cc1 (stereo not drawn),-8%
Oc1cccc(Nc2ncnc3sc4c(c23)CCCC4)c1,-11%
Cc1nc(N2CCCC2)c2c(C(=O)Nc3ccc(Br)cc3F)c(C)oc2n1,0%
Cc1cc(C)cc(NC(=O)CCCn2c3ccccc3c(=O)c3ccccc32)c1,?
COC(=O)c1ccccc1OCCCOc1ccc(C)cc1OC,?
Cc1ccc(N2CCN(C(=O)c3nn(C)c4c3CSc3ccccc3-4)CC2C)cc1 (stereo not drawn),-7%
COCCNC(=O)CSc1nc2cc3c(cc2c(=O)n1Cc1ccc(C(=O)NCCc2ccc(OC)c(OC)c2)cc1)OCO3,4%
CCOc1ccc(NC(=O)C2CCC(CNS(=O)(=O)c3ccc(Br)s3)CC2)cc1 (stereo not drawn),-15%
CSc1ncc(C(=O)Nc2cccc(C)c2C)c(-c2ccccc2)n1,-4%
Cc1cccc(C)c1NC(=O)CN(C)S(=O)(=O)c1ccc2c(c1)n(C)c(=O)c(=O)n2C,0%
Cc1ccc(CNC(=O)C2CCCN(S(=O)(=O)c3ccc4c(ccn4C)c3)C2)cc1 (stereo not drawn),-1%
CCn1cc(C(=O)NCCCOC)c(=O)c2cc(S(=O)(=O)N3CCc4ccccc4C3)ccc21,-4%
Cc1ccc(-n2nc(C(=O)Nc3ccc(F)cc3Cl)c(=O)n(C)c2=O)cc1,0%
CCOC(=O)c1c(C)[nH]c(C)c1S(=O)(=O)N1CCC(C(=O)Nc2ccc(C)c(Cl)c2)CC1,9%
COc1ccc(Cl)cc1NC(=O)CSC1=Nc2ccccc2C2=NC(CCC(=O)NCc3ccco3)C(=O)N12 (stereo not drawn),-3%
Cc1ccc(C)c(Nc2cc(C(=O)NCCCN(C)C3CCCCC3)c3ccccc3n2)c1,?
CCOC(=O)CSc1nc(-c2ccc(OCC)cc2)cc(C(F)(F)F)c1C#N,-2%
CCc1ccc(-c2cn3c(n2)sc2cc(C(=O)NCCc4ccc(OC)cc4OC)ccc23)cc1,-8%

# No new results follow: an excerpt of the list.
canonical_smiles,miR-21 reporter
CSc1ncc(C(=O)Nc2cccc(C)c2C)c(-c2ccccc2)n1,-4%
Cc1cccc(C)c1NC(=O)CN(C)S(=O)(=O)c1ccc2c(c1)n(C)c(=O)c(=O)n2C,0%
Cc1ccc(CNC(=O)C2CCCN(S(=O)(=O)c3ccc4c(ccn4C)c3)C2)cc1 (stereo not drawn),-1%

# Next section:
canonical_smiles,miR-21 reporter
CCOC(=O)c1cnc2ccc(OC)cc2c1Nc1cccc(C(C)=O)c1,23%
Nc1nonc1-c1nc2ccccc2n1CC(=O)Nc1ccc(F)cc1,20%
O=C(Nc1ccccc1C(F)(F)F)Nc1c[nH]c(=O)[nH]c1=O,0%
Cc1cc(OCC(=O)Nc2sc3c(c2C#N)CCC(C)C3)ccc1Cl (stereo not drawn),-7%
Cc1ccc(NCc2cccn2-c2nnc(N3CCC(C(=O)NCCc4ccccc4)CC3)s2)cc1,2%
COc1ccc(-n2nc3cc(C)c(NC(=O)c4ccc(-c5ccc(Br)cc5)o4)cc3n2)cc1,-34%
O=C(COc1ccccc1Cl)Nc1ccc(-c2nc3ccccc3s2)cc1,-45%
Cc1cccc(Oc2nc3c(C)cccn3c(=O)c2/C=C(\C#N)c2nc3ccccc3[nH]2)c1,4%
COc1ccc(NC(=O)CCc2nnc3n(C)c(=O)c4sccc4n23)cc1Cl,-7%
CCC(Sc1nc2n[nH]c(C)c2c(=N)n1-c1ccc(Br)cc1)C(=O)N(CC)CC (stereo not drawn),-2%
O=C(CSc1c2c(nc3ccc(Cl)cc13)CCCC2)N1CCN(c2cccc(Cl)c2)CC1,26%
COc1cc(-c2cc(OC)c3c(C)oc(C)c3c(=O)c2)ccc1OC(=O)c1cccc(C)c1,-7%
O=c1oc2ccc(Br)cc2cc1-c1nc(-c2ccccc2)no1,5%
CC(C)c1ccc(NC(=O)c2cc(S(=O)(=O)NCc3ccccc3Cl)ccc2F)cc1,26%
Cc1ccc(Nc2cc(C(=O)NC3CCCC3)c3ccccc3n2)cc1C,23%
Cc1nc(-c2ccc(C)c(N3CCN(C(=O)Nc4ccccc4C(F)(F)F)CC3)c2)no1,3%
Cc1cccc(-c2noc(-c3ccccc3NC(=O)C3CC(=O)N(c4ccccc4C)C3)n2)c1 (stereo not drawn),0%
COc1ccc(-c2csc(=Nc3ccccc3)n2CCO)cc1F,4%
COc1ccc(CCNC(=O)Cc2c(C)c3cc4c(C)coc4c(C)c3oc2=O)cc1,5%
CCc1ccc(C(=O)c2cn(CC(=O)Nc3cc(OC)ccc3OC)c3ccc(C)cc3c2=O)cc1,-2%
CCOC(=O)c1cc2c(=O)n3ccccc3nc2n(Cc2ccco2)c1=NC(=O)c1cc(C)cc(C)c1,?
CCOC(=O)c1scc(-c2ccc(C)cc2)c1S(=O)(=O)Nc1ccc(OC)c(Cl)c1,3%
Cc1cc(S(=O)(=O)Nc2ccc(-c3ccc(N4CCCCCC4)nn3)cc2)c(C)cc1Cl,6%
Cc1cc2oc(C(=O)Nc3nc(-c4ccccc4)ns3)c(C)c2cc1Cl,2%
CCOC(=O)c1c(NC(=O)c2cc(-c3ccc(Cl)cc3)on2)sc2c1CCCC2,0%
COc1ccc(N2CCN(C(=O)Nc3cn(CC(C)C)c(=O)c4ccccc34)CC2)cc1,-1%
Cc1ccccc1-n1c(SCC(=O)Nc2ccc(Cl)cc2F)nnc1-c1cc2occc2n1C,-1%
COc1ccc(C2CC(=O)c3cc(-c4nc(-c5cccc([N+](=O)[O-])c5)cs4)c(=O)n(-c4ccc(C)c(C)c4)c3C2)cc1 (stereo not drawn),-6%
CCCc1cc(=O)[nH]c(Nc2cc(Cl)ccc2OC)n1,7%
CCOC(=O)c1c(NC(=O)/C=C/c2ccc(C(C)C)cc2)sc2c1CCC2,3%
COc1cccc(C(=O)Nc2cc3cc(OC)ccc3oc2=O)c1,-1%
CC1=C(C(=O)Nc2ccc(C)cc2C)C(c2cccn2C)n2ncnc2N1 (stereo not drawn),0%
O=C(CSc1nc(-c2ccc(Cl)cc2)nc2c1Cc1ccccc1O2)N1CCCCC1,0%
CCc1ccccc1NC(=O)CSc1nnc(-c2ccccc2)c(-c2ccccc2)n1,14%
COc1ccc(CNc2nc(-c3ccco3)nn2S(=O)(=O)c2ccc3ccccc3c2)cc1OC,-6%
O=C(CSc1ncccc1C(=O)Oc1ccccc1Cl)Nc1ccccc1Cl,-47%

# New compounds follow:
canonical_smiles,miR-21 reporter
O=C(CCS(=O)(=O)c1cccs1)Nc1ccc(C(=O)Nc2ccccc2F)cc1,-18%
COc1ccc(N2CCN(C(=O)c3c(C)nn(-c4ccc(F)cc4)c3-n3cccc3)CC2)cc1,11%
CCC1CN(C(=O)N2CCC(C(=O)N3CCN(c4cccc(C)c4C)CC3)CC2)c2ccccc2O1 (stereo not drawn),25%
CCN(C(=O)Cn1c(=O)oc2cc(Cl)ccc21)c1cccc(C(F)(F)F)c1,4%
CC(C)CCNC(=O)c1ccc2c(c1)NC(=O)C(CS(=O)(=O)Cc1ccc(F)cc1)N2 (stereo not drawn),-1%
COc1ccc(CCNC(=O)Cn2c(=O)n(-c3cc(OC)c(OC)c(OC)c3)c(=O)c3ccccc32)cc1OC,5%
CCOc1ccc(-c2c(C)nn3c(C)c(C(=O)NCCc4ccc(C)cc4)cnc23)cc1OCC,-2%
COc1cc(OC)c2c(C)c(CC(=O)NCCc3ccccc3OC)c(=O)oc2c1,-5%
COc1ccc(OC)c(-c2cc(C(=O)Nc3c(C)nn(Cc4ccc(C)cc4)c3C)no2)c1,-26%
Cc1ccc(C(=O)Nc2cccc(C(=O)OCc3cc(=O)n4nc(C5CC5)sc4n3)c2)cc1,-50%
COc1ccc(Cl)cc1NC(=O)CN1c2ccccc2S(=O)(=O)c2ccccc21,4%
COc1ccc(-c2nc(CNS(=O)(=O)c3cccc(F)c3)cs2)cc1,8%
COc1ccc(CCNC(=O)c2ccc3c(c2)c(C)c(C)n3Cc2ccccc2)c(OC)c1OC,-18%
Cc1cccc(NC(=O)c2ccc3snnc3c2)c1C,-22%
CCOC(=O)Cc1ccc(NC(=O)N2CC(C)Oc3ccc(Cl)cc32)cc1 (stereo not drawn),4%
COc1cccc(-c2nc(SCC(=O)N3CCc4ccccc43)c3c(=O)n(C)c(=O)n(C)c3n2)c1,0%
COc1ccccc1NC(=O)Cc1c(C(=O)O)[nH]c2ccc(Cl)cc12,-24%
Cc1ccc2c(CNCCc3ccco3)c(C(=O)O)n(Cc3ccc(F)cc3)c2c1,-11%
COC(=O)c1ccccc1NC(=O)c1ccc(=O)n(Cc2cccc(C)c2)c1,-3%
COC(=O)c1cc2oc(C)cc2n1CC(=O)Nc1ccc(C)cc1C,-1%
CCc1ccccc1NC(=O)c1ccc2c(c1)N(Cc1cc(C)ccc1C)C(=O)c1ccccc1S2(=O)=O,-6%
COC(=O)c1cc(NC(=O)c2sc3ncn(Cc4cccc(F)c4)c(=O)c3c2C)cc(C(=O)OC)c1,0%
Cc1c(C(=O)N2CCC(C)CC2)c(S(=O)(=O)NCc2ccccc2)c(C)n1C,2%
CCN(CC)c1ccc2cc(-c3nc(-c4cccs4)no3)c(=O)oc2c1,-40%
CCc1cc2c(cc3c(=O)n(CC(=O)N4CCN(c5cc(Cl)ccc5C)CC4)nc(CC)n32)s1,0%
CC(NC(=O)c1ccc2nc(CCc3ccccc3)oc2c1)c1ccccc1 (stereo not drawn),-14%
CCOc1cc2[nH]c(=O)n(CCCCC(=O)N3CCN(c4cccc(Cl)c4)CC3)c(=O)c2cc1OCC,7%
Cc1nc(N2CCOCC2)c2c(C(=O)N3CCN(c4ccccc4F)CC3)c(C)oc2n1,-7%
O=C(c1ccc(Br)cc1)N(Cc1cccs1)c1ccc(F)cc1,15%
O=C(Nc1cccc(C(F)(F)F)c1)c1cc2nc(-c3ccccc3)cc(C(F)(F)F)n2n1,1%
Cc1cccc(N2CCN(C(=O)c3ccc4c(c3)c(C)c(C)n4C)CC2)c1C,-3%
COc1ccc(NC(=O)Cn2c(=O)n(Cc3nc(C)no3)c(=O)c3cc4c(cc32)OCO4)cc1OC,0%
Cc1cc(C)cc(-n2c(SCC(=O)Nc3ccc4c(c3)OCO4)nc3c([nH]c4ccccc43)c2=O)c1,1%
Cc1ccn2c(Nc3ccccc3C)c(-c3ccccc3)nc2c1,4%
CCCn1cc(S(=O)(=O)c2ccc(CC)cc2)c(=O)c2cc(F)c(N(CC)CC)cc21,-4%
COc1cccc(Cc2nc3ccccc3nc2SCC(=O)N2CCCCC2C)c1 (stereo not drawn),13%
CN(C)CCNC(=O)CN1C(=O)CCn2nc(-c3cn(C)c4ccccc34)cc21,0%
CCN(CC)CCCNC(=O)c1cn(C)c2ccc(S(=O)(=O)N3CCOCC3)cc2c1=O,2%
Cc1cc(C)cc(NC(=O)Cn2c(=O)n(-c3ccc(C)c(C)c3)c(=O)c3oc4ccccc4c32)c1,-8%

# An excerpt of these results, as labelled records:
COc1ccc(N2CCN(C(=O)Nc3cn(CC(C)C)c(=O)c4ccccc34)CC2)cc1
  miR-21 reporter: -1%

CCOc1ccc(NC(=O)C2CCC(CNS(=O)(=O)c3ccc(Br)s3)CC2)cc1 (stereo not drawn)
  miR-21 reporter: -15%

CCOC(=O)CSc1nc(-c2ccc(OCC)cc2)cc(C(F)(F)F)c1C#N
  miR-21 reporter: -2%

CCc1ccccc1NC(=O)c1ccc2c(c1)N(Cc1cc(C)ccc1C)C(=O)c1ccccc1S2(=O)=O
  miR-21 reporter: -6%

# Only part of the results is shown. The share of hits here may be higher or lower than overall.
